KCNQ2 block: KCNQ2 potassium channel inhibitors, primary screen, cell-based, CHO-K1, FluxOR thallium flux, B-score (AID 2156); 20 min; active compounds read low; only compounds with negative scores are shown here; some inactives read as strong as hits; B-score at 10 µM; O88943; actives 1.1% (n = 310,000);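 active = fluorescence ratio B-score at most minus 3 library SDs, with starting brightness B-score within 2 library SDs, cut at about -5.5 in these data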
Target sequence (O88943 whole entry, looked up): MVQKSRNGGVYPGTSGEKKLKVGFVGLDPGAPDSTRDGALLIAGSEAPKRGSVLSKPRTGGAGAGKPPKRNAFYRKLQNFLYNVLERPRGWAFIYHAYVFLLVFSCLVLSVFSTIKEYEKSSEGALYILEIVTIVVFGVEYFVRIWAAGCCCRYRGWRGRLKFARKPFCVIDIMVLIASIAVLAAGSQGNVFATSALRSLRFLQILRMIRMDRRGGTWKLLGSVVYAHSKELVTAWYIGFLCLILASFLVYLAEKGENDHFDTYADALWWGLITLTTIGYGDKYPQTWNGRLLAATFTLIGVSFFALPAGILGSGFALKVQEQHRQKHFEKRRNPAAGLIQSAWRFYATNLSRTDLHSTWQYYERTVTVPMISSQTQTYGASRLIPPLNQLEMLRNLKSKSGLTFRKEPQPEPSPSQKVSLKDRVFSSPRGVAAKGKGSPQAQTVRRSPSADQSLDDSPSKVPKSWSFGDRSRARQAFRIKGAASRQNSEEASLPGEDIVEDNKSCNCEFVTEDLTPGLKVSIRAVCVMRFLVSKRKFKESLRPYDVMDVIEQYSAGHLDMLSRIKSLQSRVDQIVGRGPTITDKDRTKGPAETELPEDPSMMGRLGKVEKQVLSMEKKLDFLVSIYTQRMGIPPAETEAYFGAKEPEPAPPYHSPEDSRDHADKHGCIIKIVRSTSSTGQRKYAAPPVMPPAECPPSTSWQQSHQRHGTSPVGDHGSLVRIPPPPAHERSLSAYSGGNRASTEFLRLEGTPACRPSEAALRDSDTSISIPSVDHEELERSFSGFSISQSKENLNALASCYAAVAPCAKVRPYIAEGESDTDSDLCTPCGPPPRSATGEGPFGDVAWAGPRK
KCNQ2 block baseline: further read-out of KCNQ2 block, marked with its call; B-score; measured here: initial fluorescence intensity artifact check;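 brightness before thallium and not channel activity; 0 = typical well and far values either way flag optical interference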
* = called active by the depositor; i = inactive. These rows are one share of the data; count on the stated rates, not on these rows.

Every second line gives: KCNQ2 block, KCNQ2 block baseline
- O=C(Nc1ccc(C(=O)O)cc1)Nc1cccc([N+](=O)[O-])c1
 : i, 0.55
- Cc1ccc2c(c1)nnn2C1CCN(S(=O)(=O)c2ccc(C(=O)N3CC(C)CC(C)C3)cc2)CC1 (stereo not given)
 : i, -2.1
- Cc1ccc2occ(/C=C/C(=O)c3ccccc3O)c(=O)c2c1
 : i, 1.6
- O=C(N/N=C/c1cccnc1)c1cc2ccccc2o1
 : i, 0.14
- O=C(COc1ccccc1)N(Cc1ccco1)c1ccc(O)cc1
 : i, 0.57
- Cc1ccc(S(=O)(=O)NC(=O)NCc2ccc3c(c2)OCO3)cc1
 : i, 0.53
- COc1cccc(NC(=O)CN(C)C(=O)c2ccc(-c3ccc(Cl)cc3)o2)c1
 : i, 0.77
- Cc1ccc(S(=O)(=O)N/N=C/c2ccc(C#N)cc2)cc1
 : i, -0.54
- COCCN(CCOC)Cc1c(O)ccc2c1O/C(=C\c1ccco1)C2=O
 : i, 29.8
- COc1cc(C(=O)NCCN=C2NS(=O)(=O)c3ccccc32)cc(OC)c1OC
 : i, 0.04
- Cc1ccc(CN2CCC(c3cc(-c4ccc(Cl)cc4)n[nH]3)CC2)cc1
 : i, -0.93
- COc1ccc(N=c2scc(C)n2CCCN2CCCC2=O)cc1
 : i, -0.08
- CC(NS(=O)(=O)c1ccccc1)C(N)=O (stereo not given)
 : i, 0.47
- O=C(Nc1cccc(Cl)c1)OC1CCCCc2cccnc21 (stereo not given)
 : i, 0.38
- CN(CC(=O)Nc1ccc(F)cc1)C(=O)COC(=O)C1=COCCO1
 : i, -0.82
- NC(=O)c1ccccc1NS(=O)(=O)c1ccc2c(c1)OCCO2
 : i, 1.79
- CC(=O)Nc1ccc(C2=NNC(=Nc3cccc(S(=O)(=O)N(C)C)c3)SC2)cc1
 : i, -4.27
- NC(=O)C1(c2ccccc2)CCOCC1
 : i, -0.12
- COc1ccc(C2=NN(c3ccccc3)C(c3cccs3)C2)cc1 (stereo not given)
 : i, -0.88
- COc1nc(NC(C)C)nc(N(C#N)CN2C(=O)c3ccccc3S2(=O)=O)n1
 : i, 0.51
- Cc1cc(OCC(=O)Nn2cnnc2)c(C)cc1Br
 : i, 0.01
- C(=N\n1cnnc1)/c1cccc(OCCOc2ccccc2)c1
 : i, 1.63
- CCOc1cc(NC(=S)NCC2CCCO2)c(OCC)cc1NC(=O)c1cccc(C)c1 (stereo not given)
 : i, 2.12
- CC1(C)Cc2c(C#N)c(NCC3CCCO3)nc(-c3ccco3)c2CO1 (stereo not given)
 : i, -0.26
- Cc1oc2cc(O)ccc2c(=O)c1-c1ccccc1
 : i, 0.05
- Cc1ccc(OC/C(=N\O)C(C)(C)C)c([N+](=O)[O-])c1
 : i, 0.84
- O=C(c1cc2cc(Br)ccc2o1)N1CCCCC1
 : i, 2.15
- COc1ccc(S(=O)(=O)N2CCN(c3ccccn3)CC2)cc1OC
 : i, 0.03
- CC(C)CNC(=O)C(=O)NCC1CCCN1S(=O)(=O)c1cccs1 (stereo not given)
 : i, 0.01
- CC/C(C)=N\Nc1nc(-c2cc3cc(OC)ccc3oc2=O)cs1
 : i, -2.27

The listing continues.
Every second line gives: KCNQ2 block, KCNQ2 block baseline
- CCC/C(O)=N\S(=O)(=O)c1ccc(N=NN(C)C)cc1
 : i, 0.04
- CC1CCCCN1C(=O)/C=C/c1ccccc1[N+](=O)[O-] (stereo not given)
 : i, -1.2
- Cc1nn(Cc2cccc(C(=O)Nn3cc([N+](=O)[O-])cn3)c2)c(C)c1[N+](=O)[O-]
 : i, 0.37
- COc1ccc2ccc(=O)oc2c1CC=C(C)C
 : i, 1.02
- O=C1C2C3C=CC(C3)C2C(=O)N1/N=C/c1cn(Cc2ccc(F)cc2)c2ccccc12 (stereo not given)
 : i, 0.05
- COCCCNC(=O)c1ccc2c(c1)OCO2
 : i, 1.86
- CCCCCc1c(O)nc(SCC(=O)NCC2CCCO2)[nH]c1=O (stereo not given)
 : i, 0.78
- Cc1ccc(N2CCN(C(=O)c3cccs3)CC2)cc1C
 : i, 0.83
- COc1ccc(C2C(C(C)=O)=C(C)Nc3ncnn32)cc1[N+](=O)[O-] (stereo not given)
 : i, 0.25
- COCCCNC(=S)Nc1cccc(SC)c1
 : i, 0.1
- COc1cc(C)c(S(=O)(=O)n2ccc(C)n2)cc1C
 : i, -1.56
- O=C(c1ccc(F)cc1)N(Cc1ccco1)C1CCS(=O)(=O)C1 (stereo not given)
 : i, 2.08
- CC(C)N(Cc1ccccc1)C(=O)COc1ccccc1
 : i, 1.11
- COc1ccc(OC)c(NC(=O)C23CCC(C)(C(=O)O2)C3(C)C)c1 (stereo not given)
 : i, -0.29
- O=C(NC1CCCCC1)c1ccc(S(=O)(=O)NCc2cccnc2)cc1
 : i, 1.07
- Cc1cc(C)c(NC(=O)CSc2nnc(SCC(=O)Nc3c(C)cc(C)cc3C)n2N)c(C)c1
 : i, 0.96
- CCc1ccc(CNC(=O)c2nn(C)c3c2CS(=O)(=O)c2ccccc2-3)cc1
 : i, 0.65
- CCOc1ccc(C(=O)N2CCCC(c3nc(-c4ccc(C)o4)no3)C2)cc1 (stereo not given)
 : i, -0.9
- CCOc1cccc(/C=N/NC(=O)c2cccnc2)c1O
 : i, 0.28
- O=C(Cn1c(=O)oc2cccnc21)Nc1ccccc1Oc1ccc(Cl)cc1Cl
 : i, 2.01
- CCOC(=O)C1CCN(S(=O)(=O)c2ccc3[nH]c(=O)ccc3c2)CC1
 : i, 0.61
- COc1ccc(NC(=O)C(CCSC)NC(N)=O)cc1Cl (stereo not given)
 : i, 0.09
- CNC(C)C#Cc1ccc2oc3cccc(OC)c3c(=O)c2c1 (stereo not given)
 : i, -0.42
- COc1cc(/C=N\NC(=O)c2ccc(-c3ccccc3)cc2)ccc1OCC(N)=O
 : i, -0.49
- CN1C(=O)CC(N2CCN(CC(=O)N3CCCC3)CC2)C1=O (stereo not given)
 : i, -0.01
- O=C(N1CCC(n2nc(-c3ccccc3)oc2=O)CC1)C1(c2ccc(Cl)cc2)CC1
 : -8.22*, -0.16*
- O=C(Nc1nnc(-c2ccccc2Cl)o1)c1ccc(S(=O)(=O)N2CCCCCC2)cc1
 : i, -1.63
- N#CC1=C(N)C2=CCCC[C@H]2[C@H](c2cccc(F)c2)C1(C#N)C#N
 : i, -0.18
- C[C@H](NC(=O)c1nc[nH]c1C(=O)NC1CCN(C(=O)OC(C)(C)C)CC1)C(=O)OC(C)(C)C
 : i, -0.96
- CCOC(=O)C1CCN(Cc2ccc(O)c3ncccc23)CC1
 : i, 1.69

By substructure, those above containing two or more sulfur atoms.
Every second line gives: KCNQ2 block, KCNQ2 block baseline
- CC(=O)Nc1ccc(C2=NNC(=Nc3cccc(S(=O)(=O)N(C)C)c3)SC2)cc1
 : i, -4.27
- CC(C)CNC(=O)C(=O)NCC1CCCN1S(=O)(=O)c1cccs1 (stereo not given)
 : i, 0.01
- COCCCNC(=S)Nc1cccc(SC)c1
 : i, 0.1
- Cc1cc(C)c(NC(=O)CSc2nnc(SCC(=O)Nc3c(C)cc(C)cc3C)n2N)c(C)c1
 : i, 0.96

Given with each value named: part of the list above.
CCC/C(O)=N\S(=O)(=O)c1ccc(N=NN(C)C)cc1
  KCNQ2 block: i	KCNQ2 block baseline: 0.04
Cc1ccc(S(=O)(=O)N/N=C/c2ccc(C#N)cc2)cc1
  KCNQ2 block: i	KCNQ2 block baseline: -0.54
Cc1ccc(CN2CCC(c3cc(-c4ccc(Cl)cc4)n[nH]3)CC2)cc1
  KCNQ2 block: i	KCNQ2 block baseline: -0.93
CCOC(=O)C1CCN(S(=O)(=O)c2ccc3[nH]c(=O)ccc3c2)CC1
  KCNQ2 block: i	KCNQ2 block baseline: 0.61

The list goes on:
Every second line gives: KCNQ2 block, KCNQ2 block baseline
- O=C(c1ccc2c(c1)OCCO2)N1CCN(c2ccccn2)CC1
 : i, 2.21
- COc1ccc(CCN(C(=O)C(F)(F)F)C(C(=O)NC2CCCCC2)c2ccc(C)s2)cc1OC (stereo not given)
 : i, -0.81
- O=c1c2ccccc2ncn1-c1ccc([N+](=O)[O-])cc1Cl
 : i, -2.78
- O=C(O)c1cccc(CSc2nc(-c3ccc(Cl)cc3)cc(C(F)(F)F)n2)c1
 : i, -0.22
- Cc1ccccc1CN1CCNC1=O
 : i, -0.04
- O=C(O)c1ccccc1C(=O)Nc1ccccn1
 : i, -1.44
- COc1ccc(NC(=O)N2CCN(C(=O)c3ccco3)CC2)c(OC)c1
 : i, 0.11
- C=C(C)C1CC=C(C)/C(=N/Nc2ccccc2[N+](=O)[O-])C1 (stereo not given)
 : i, -1.03
- Cc1ccc(C(=O)NC(=S)Nc2ccc(CN3CCOCC3)cc2)cc1
 : i, 1.88
- CCN(CC)C(=O)Cn1cc(S(=O)(=O)CC(=O)NCc2ccccc2)c2ccccc21
 : i, 1.78
- Cc1ccc(-c2nnc(N3CC(C)OC(C)C3)c3ccccc23)cc1 (stereo not given)
 : i, 0.56
- O=C(NCc1ccco1)C1CCC(N2C(=O)C3C4CCC(C4)C3C2=O)CC1 (stereo not given)
 : i, 0.45
- Cc1nc(C(=O)NC2CCCCC2)sc1C1(C)CC(c2cccc([N+](=O)[O-])c2)=NO1 (stereo not given)
 : i, 1.38
- Cc1cc(C(=O)N(C2CCCCC2)C2CCCCC2)no1
 : i, 2.85
- CCCCn1c(-c2ccccc2)cnc1SCC(=O)NCCc1ccc(OC)c(OC)c1
 : i, -0.09
- CCc1nc(N(CC)CC)c2oc3ccccc3c2n1
 : i, -0.39
- COC(CN(C(=O)CCl)C(C(=O)NC1CCCCC1)c1ccc(C)cc1)OC (stereo not given)
 : i, 0.85
- CCOC(=O)c1ccc(NC(=S)NN)cc1
 : i, 0.72
- COc1cccc(-c2nc(COc3ccc(Cl)cc3Cl)no2)c1
 : i, 0.37
- O=C(Nc1ccccc1)C1=C[C@@H](C2CCCCC2)C[C@@H](OCc2ccc(CO)cc2)O1
 : i, -0.03
- CC(C)N(C)C1CCN(S(=O)(=O)c2ccc(-c3ccc(=O)[nH]n3)s2)CC1
 : i, -1.64
- CCCc1nnc(NC(=O)CCN2C(=O)c3ccccc3C2=O)s1
 : i, -0.01
- CCC1(C)Cc2c(sc(NC(=S)NC(=O)c3ccccc3)c2C#N)CO1 (stereo not given)
 : i, -0.25
- CCS(=O)(=O)CCSc1nc(C)cc(C)n1
 : i, 1.12
- COc1cc(CN2C(=S)NC(C)(C)CC2(C)O)cc(OC)c1 (stereo not given)
 : i, 1.55
- Cc1ccc([N+](=O)[O-])cc1NC(=O)CN1CCCCC1
 : i, 0.06
- O=C(Nc1ccc(Cl)cc1)N1CCC(CO)(Cc2ccccc2)CC1
 : i, -0.05
- CC(C)[C@H](NC(=O)OCc1ccccc1)C(=O)OCC(=O)Nc1c(F)cccc1F
 : i, -1.39
- COc1ccc(C(=O)CSc2nnc(-c3cc4ccccc4cc3O)n2Cc2ccco2)cc1
 : i, -0.75
- COCCN(C(=O)c1snc(C(N)=O)c1N)C(C(=O)NC1CCCCC1)c1ccc(N(C)C)cc1 (stereo not given)
 : i, 0.02

Continued.
Every second line gives: KCNQ2 block, KCNQ2 block baseline
- Cc1cc(C)n(CCNC(=O)C2CCC(=O)N(Cc3ccc(Cl)cc3)C2)n1 (stereo not given)
 : i, 0.02
- N#Cc1nc(Cc2ccccc2)oc1N1CCC(Cc2ccccc2)CC1
 : i, 1
- Cc1ccc(N2CC(=O)N(c3ccc(C)cc3)CC2=O)cc1
 : i, 0.24
- COc1cc(NC(=O)c2ccccc2)c(OC)cc1NC(=O)CN1CCN(c2ccccn2)CC1
 : i, 0.57
- COc1ccccc1-c1nnc2n1N=C(C)CS2
 : i, 0.87
- CCOC(=O)C1=C(CC)Nc2ccccc2N=C1NC(=O)Nc1ccccc1OC
 : i, 0.02
- O=C(c1cc([N+](=O)[O-])cc([N+](=O)[O-])c1)N1CCN(C(=O)c2ccco2)CC1
 : i, -0.04
- CCOc1ccc(CC(=O)Nc2c(C(N)=O)oc3ccc(Br)cc23)cc1OCC
 : i, -1.31
- O=C(Oc1ccc(Br)cc1)C1CC(=O)N(c2ccc(F)cc2)C1 (stereo not given)
 : i, -1.18
- Cc1ccc(C(=O)NCC(=O)OCC(=O)NCC(F)(F)F)cc1
 : i, 1.86
- COc1ccccc1NC(=O)N1CCCC(c2nc3c(nnn3Cc3ccc(C)cc3)c(=O)[nH]2)C1 (stereo not given)
 : -6.24*, -0.5*
- C=CCN(CC=C)CCOc1cccc2ccccc12
 : i, -0.84
- CCc1c(C)sc(NC(=O)CSc2nc3c(c(C(F)(F)F)n2)CCc2ccccc2-3)c1C#N
 : i, -0.83
- CCOc1ccccc1C(=O)Nc1cc(OC)ccc1OC
 : i, 1.08
- Cc1ccc(NC(=O)C(OC(=O)c2ccccc2Cl)c2ccccc2)cc1Cl (stereo not given)
 : i, 0.68
- COC(=O)c1ccccc1NC(=S)N(Cc1ccc2c(c1)OCO2)Cc1cc2cc(OC)ccc2[nH]c1=O
 : i, 0.82
- Cc1cccc(NC(=O)CN(C)S(=O)(=O)c2cnc[nH]2)c1
 : i, 0.6
- CCOP(=O)(NC(c1ccccc1)c1nc2ccccc2[nH]c1=O)OCC (stereo not given)
 : i, 0.9
- Cc1nn(C)c(Cl)c1CN1CCN(CC(C)C)C(CCO)C1 (stereo not given)
 : i, 2.04
- Cc1ccc2c(c1)c(C1=NC(=S)NC1=O)c(O)n2C
 : i, -0.69
- O=C(NCc1ccccc1)C1CCCN(S(=O)(=O)c2ccc(F)cc2)C1 (stereo not given)
 : i, -0.05
- O=[N+]([O-])c1ccc(N2CCN(C(=S)Nc3ccc(F)cc3)CC2)cc1
 : i, -2.2
- Cc1ccsc1/C=N/Nc1ncc(Cl)cc1Cl
 : i, 0.2
- CC(=O)c1cccc(CN2CCC(CO)(CCOc3ccccc3)CC2)c1
 : i, 1.95
- CC(=O)C1=C(C)NC(C)=C(C(C)=O)C1c1cccs1
 : i, -1.62

Bioassay records from PubChem.
